RGS16-Gao = modulators of RGS16 binding to Galphao, primary screen, biochemical, human proteins, multiplexed bead flow cytometry. bead-based flow cytometry RGS16-Galphao binding, fluorescence; actives lie on both sides. binding response (% of control), % at 10 µM. 0.38% of 220,000 active;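 active = below 25% or above 175%, edge rows of some plates excepted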;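 also: Galphao activated by GDP with aluminum fluoride before binding; 100% = wells without compound and 0% = beads without RGS; some results beyond the cut were filed as inactive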
Target sequence (O15492 whole entry, looked up): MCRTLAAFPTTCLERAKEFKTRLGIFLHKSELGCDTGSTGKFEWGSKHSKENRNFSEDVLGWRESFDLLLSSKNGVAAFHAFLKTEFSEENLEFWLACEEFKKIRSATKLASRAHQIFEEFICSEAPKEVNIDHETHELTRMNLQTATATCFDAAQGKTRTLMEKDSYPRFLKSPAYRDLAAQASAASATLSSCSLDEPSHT
Target sequence (P09471 whole entry, looked up): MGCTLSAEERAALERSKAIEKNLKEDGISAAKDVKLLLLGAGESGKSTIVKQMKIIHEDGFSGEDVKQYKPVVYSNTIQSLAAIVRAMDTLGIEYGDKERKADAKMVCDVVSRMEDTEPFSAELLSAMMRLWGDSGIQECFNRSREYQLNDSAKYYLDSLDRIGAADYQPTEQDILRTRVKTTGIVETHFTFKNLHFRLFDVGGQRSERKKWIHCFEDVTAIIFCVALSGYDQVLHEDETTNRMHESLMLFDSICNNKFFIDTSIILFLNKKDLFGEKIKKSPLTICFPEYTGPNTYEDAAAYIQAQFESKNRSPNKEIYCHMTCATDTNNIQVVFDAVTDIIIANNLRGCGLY
GALR2 agonist = GALR2 receptor agonists, primary screen, cell-based | GALR2-expressing cells, agonist activation read-out | activation, %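 (tested at 5 µM)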 | Galanin receptor type 2 (Homo sapiens), O43603 | 0.48% of 140,000 active;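 active = above mean plus 3 SD of all compounds, about 5% in these data, not always enough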;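 also: 0% = vehicle buffer wells and 100% = reference agonist at full effect; tested in CHO reporter cells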
Target sequence (O43603 whole entry, looked up): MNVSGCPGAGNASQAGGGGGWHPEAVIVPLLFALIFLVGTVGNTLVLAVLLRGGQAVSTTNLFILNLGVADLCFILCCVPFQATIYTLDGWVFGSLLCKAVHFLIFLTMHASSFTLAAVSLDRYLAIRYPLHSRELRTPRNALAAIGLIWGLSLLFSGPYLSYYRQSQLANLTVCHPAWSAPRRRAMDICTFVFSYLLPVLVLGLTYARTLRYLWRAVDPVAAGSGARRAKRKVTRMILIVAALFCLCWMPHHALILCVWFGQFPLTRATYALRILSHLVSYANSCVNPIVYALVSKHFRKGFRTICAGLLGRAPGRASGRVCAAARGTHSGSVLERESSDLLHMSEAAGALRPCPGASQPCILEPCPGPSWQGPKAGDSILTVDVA
INS promoter inh = inhibitors of insulin promoter-driven GFP, primary screen, imaging, TRM-6 cells (human fetal islet line), eGFP reporter, cell count. reporter expression induced with tamoxifen. inhibition, % at 2 µM. 0.9% of 130,000 active. AID 1273, 2008;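 active = inhibition above the mean plus 3 SD, with well images judged a real hit on visual review, cut at about 60% in these data, passing the limit was not always enough; inconclusive = inhibition over the cutoff but images rejected on review; inactive = inhibition not above the cutoff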
PKD1 kinase inh = inhibitors of human PKD1 kinase, biochemical, fluorescence polarization | PKD1 kinase fluorescence polarization assay | inhibition, %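 (about 10 µM by stock and volumes)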 | 0.056% of 200,000 active | AID 797, 2007;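 active = inhibition of 50% or more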;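 also: controls were vehicle for no effect and a reference inhibitor for full effect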
HSV replic up = enhancers of HSV replication in host cells, fold increase, host cell viability. HSV replication augmentation in cells. maximum fold increase. 0.005% of 220,000 active. AID 1956, 2009;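 active = peak rise of 1.5-fold or more in the series; inconclusive = self-fluorescent or not available for retest; tested in PC3 cells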;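 also: first round at 10 µM; read as green reporter fluorescence; hits show the peak of a series up to 25 µM; 1 = signal of infected wells without compound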
INS promoter inh cell count = second read-out of INS promoter inh, no call of its own (marks repeat the call); normalized cell count, %; measured here: cell count, toxicity; reference of the scale not given here;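 cells exposed to compound for 48 h; stained nuclei by imaging scaled within each plate; lower means fewer cells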
HSV replic up primary fold = further read-out of HSV replic up, marked with its call; fold increase; compound at 10 µM; measured here: primary screen fold increase 10 uM; tested in PC3 cells;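 GFP signal in the first replicate; 1 = infected wells without compound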
The depositor's hits bear a star; i = inactive; ? = inconclusive; · = not tested or not shown.

structure	GALR2 agonist	HSV replic up primary fold	RGS16-Gao	PKD1 kinase inh	INS promoter inh cell count	INS promoter inh	HSV replic up
Cc1c(OCc2ccccc2)cccc1OCc1ccccc1	-1.8	0.7	104	-8	98	-36	i
CCNC(=O)C1CC(=O)N(Cc2ccc3c(c2)OCO3)C(=Nc2ccc(OCC)cc2)S1 (centres undefined)	-1.9	·	97	-2	75	51	·
Cc1cc(NCCCN2CCOCC2)n2c(nc3ccccc32)c1C#N	1.6	0.96	90	-16	·	·	i
CCCN(CC(=O)Nc1ccc(Cl)cc1Cl)C(=O)/C=C/c1cccc([N+](=O)[O-])c1	0.9	1.1	107	-4	·	·	i
O=C(Nc1ccc(Cl)cc1C(F)(F)F)C(Sc1nnc(-c2cccs2)o1)c1ccccc1 (centres undefined)	-1.7	0.82	153	0	65	-12	i
NC(=O)c1cc([N+](=O)[O-])ccc1NCc1cccnc1	·	0.84	100	-7	115	-21	i
COCCCNC(=O)C1CCN(c2nc(C)cc(C)n2)CC1	-2.6	1.1	99	-5	·	·	i
O=C(CN1CCN(C(=O)c2cccs2)CC1)Nc1ccc(Br)cc1	-1.8	0.89	99	4	114	31	i
Cc1ccc(/C(N)=N/OC(=O)Cc2cccc3ccccc23)cc1	·	0.93	99	5	·	·	i
CC1CCC(=NNC(=O)Cc2cccn2C)CC1 (centres undefined)	·	0.93	80	3	·	·	i
Cc1cc(C)c(NC(=O)COC(=O)/C=C/c2cccs2)c(C)c1	-0.5	0.99	58	1	·	·	i
COC(=O)c1cc(=O)n(Cc2ccc(F)cc2)c(=Nc2ccccc2)s1	·	0.64	101	·	·	·	i
CCOC(=O)c1sc(NC(=O)C(C)Sc2nnc(N)s2)nc1C (centres undefined)	·	0.99	101	-12	·	·	i
COc1ccc(C(=O)/C=C/c2ccc(N3CCCCC3)c([N+](=O)[O-])c2)c(OC)c1	-2.2	0.82	106	1	·	·	i
Cc1cc(N2CCCC2=O)c(N)cc1N	-1.3	0.7	81	-11	132	-4	i
CCCC(C)NC(=O)CSc1nnc(-c2c[nH]c3ccccc23)o1 (centres undefined)	·	0.94	113	1	63	-24	i
CCOc1ccc2ccccc2c1C(=O)N1CCN(c2ccccc2)CC1	-0.3	0.64	96	-5	66	13	i
Cc1ccc(S(=O)(=O)N(Cc2ccccc2)Cc2ccco2)cc1	1.0	1.1	99	-8	·	·	i
COc1ccc(CCNc2ccc(N3C(=O)CC(C)C3=O)cc2[N+](=O)[O-])cc1OC (centres undefined)	·	0.82	100	3	138	-21	i
O=C(NCCN1CCN(c2ccccc2)CC1)C1CCN(S(=O)(=O)c2cccc3nonc23)CC1	0.2	0.87	117	-23	194	-18	i
CCCCC(=O)Nc1ccccc1C(=O)OCC(=O)c1ccc2c(c1)OCCO2	-0.6	0.85	101	0	·	·	i
CC1=Nn2c(nnc2-c2ccccc2)SC1	-0.5	0.96	104	2	145	-11	i
N#Cc1nc(-c2cccc3ccccc23)oc1NCC1CCCO1 (centres undefined)	·	0.92	102	·	·	·	i
Cn1cc(CNCc2ccc(OC(F)(F)F)cc2)c(-c2ccc3c(c2)OCCO3)n1	·	0.92	101	-4	·	·	i
COc1ccc(/C=N/NC(=O)c2ccccc2NC(=O)c2ccco2)c(OC)c1	·	0.92	95	·	·	·	i
O=C1NC(CCc2ccccc2)C(=O)N1Cc1cccc2ccccc12 (centres undefined)	-0.2	1.1	112	-4	·	·	i
CC12CCC(c3c(C(=O)N4CCOCC4)nn(-c4ccccc4)c31)C2(C)C (centres undefined)	·	0.94	95	-6	·	·	i
CCOC(=O)CNc1c(-c2ccc(O)cc2)nc2ccc(Cl)cn12	-2.9	0.9	100	5	·	·	i
CC(C)NC(=O)c1ccccc1NC(=O)c1ccccc1N(C)S(C)(=O)=O	-1.4	1.4	101	3	97	0	i
CCOC(=O)C(=CNc1cccc(C)n1)C(=O)OCC	0.1	·	35	-4	·	·	·
Cc1c(C(=O)Nc2cccc(-c3nnc4n3CCCCC4)c2)oc2ccccc12	0.8	0.88	104	1	·	·	i
Cc1cc(C)c(C)c(C(=O)c2ccccc2C(=O)O)c1C	·	1.1	92	-5	·	·	i

Grouped by structure, those above with a CF3 group (2)
structure	GALR2 agonist	HSV replic up primary fold	RGS16-Gao	PKD1 kinase inh	INS promoter inh cell count	INS promoter inh	HSV replic up
O=C(Nc1ccc(Cl)cc1C(F)(F)F)C(Sc1nnc(-c2cccs2)o1)c1ccccc1 (centres undefined)	-1.7	0.82	153	0	65	-12	i
Cn1cc(CNCc2ccc(OC(F)(F)F)cc2)c(-c2ccc3c(c2)OCCO3)n1	·	0.92	101	-4	·	·	i

Other records.
structure	GALR2 agonist	HSV replic up primary fold	RGS16-Gao	PKD1 kinase inh	INS promoter inh cell count	INS promoter inh	HSV replic up
O=C(Nc1ccc2oc(=O)ccc2c1)c1ccc(-c2cccc([N+](=O)[O-])c2)o1	·	1.2	97	·	·	·	i
COc1cccc(C(=O)NCC(=O)N/N=C(C)\C=C\c2ccccc2)c1	·	1	183	-4	101	13	i
COc1ccc(NC(=O)CSc2n[nH]c(-c3ccco3)n2)cc1	·	1	100	1	·	·	i
COc1ccc(CC(=O)NNc2ncnc3c2cnn3-c2ccc(C)cc2)cc1	-1.3	0.86	107	6	·	·	i
Cc1cc(/C=C2/NC(=O)NC2=O)c(C)n1-c1ccc(C#N)cc1	·	1	98	3	144	-23	i
CN(C)CCNC(=O)Nc1ccc(F)cc1F	·	0.88	109	11	·	·	i
O=C(c1cccc(-c2nnc(-c3ccccc3)o2)c1)N1CCCCC1	-2.2	1.1	109	4	126	-3	i
CC(C)OC(=O)CC(=O)CSc1nc(-c2ccc(F)cc2)cc(-c2ccccc2)c1C#N	0.2	·	47	3	·	·	?
CCOc1nc(C)ccc1-c1noc(CC)n1	-2.0	1	102	-2	159	38	i
Cc1cccc(Cn2cc(SCC(=O)Nc3nccs3)c3ccccc32)c1	-4.4	1.1	122	-3	·	·	i
COc1ccccc1CC(=O)N1CCN(c2cccc(C(F)(F)F)c2)CC1	-3.4	1	104	-3	·	·	i
Cn1c(=O)c2c(ncn2CC(=O)OCC(=O)NC2CCCc3ccccc32)n(C)c1=O (centres undefined)	-0.6	0.92	94	-1	153	7	i
O=C(c1ccc2c3c(cccc13)CC2)N1CCN(c2ncccn2)CC1	-2.6	0.97	·	-4	106	-12	i
COc1cc(NS(=O)(=O)c2ccc(C)cc2)c2ncccc2c1	3.6	0.48	104	8	·	·	i
CCOc1ccccc1-c1nc(C(N)=O)c2[nH]c(=O)n(-c3cccc(C)c3)c2n1	0.6	·	98	14	129	-29	·
CCN1CCCc2cc(CN(CCN3CCOCC3)C(=S)Nc3cc(F)cc(F)c3)ccc21	·	0.96	100	1	93	-33	i
O=C(NC(Cc1c[nH]c2ccccc12)C(=O)N/N=C/c1ccc(Cl)cc1)c1cccs1 (centres undefined)	·	0.78	101	-2	129	18	i
Cc1cc(C)c2c(n1)sc1c(O)cc(=O)[nH]c12	-2.3	0.97	97	-4	97	62	i
Cc1ccc2[nH]cc(CCNC(=O)CN3C(=O)c4ccccc4C3=O)c2c1	0.1	1	91	6	108	17	i
CN1CCN(C(=O)CN(C)S(=O)(=O)c2ccc3ccccc3c2)CC1	·	1	109	7	43	56	i
Cc1ccc(CN2CC(C(=O)O)CC2=O)cc1 (centres undefined)	-1.2	0.79	101	-6	77	-225	i
Cc1oc(-c2ccccc2Cl)[n+]([O-])c1C	-1.0	1.1	90	1	112	67	i
CC(=O)Nc1nc(CC(C)C)cc2c1c(=O)oc1ccccc12	-1.4	0.93	82	8	158	40	i
Cc1nnc(NC(=O)CSc2nnc3scc(-c4ccc(C)c(C)c4)n23)s1	-0.1	0.91	-13	4	·	·	i
O=C(N[C@H](C(=O)O)c1ccccc1)C1CCC(Cn2nnc3ccccc3c2=O)CC1 (some centres undefined)	·	1	93	·	·	·	i
COC(=O)c1cccc(Nc2nc(-c3cccnc3)nc3ccccc23)c1	·	0.73	100	·	·	·	i
Cc1[nH]c(=S)c(C#N)c(C)c1Cc1ccccc1	·	0.99	82	·	·	·	i
COc1cc(C(=O)Nc2sc3c(c2C#N)CCN(C(C)=O)C3)cc(OC)c1OC	-0.3	0.94	97	-2	·	·	i
O=C(CN1CCN(Cc2ccccc2)CC1)Nc1ccc(Cl)cn1	-0.7	0.62	106	-5	88	55	i
CCOc1cc(-c2conc2N)cc(OCC)c1OCC	-3.0	0.81	98	-2	117	12	i
Cc1cc(=O)oc(C)c1C(=O)N1CCN(c2ccc(F)cc2)CC1	-1.6	0.96	96	-1	36	-13	i
O=C1NCCCC1C(=O)N/N=C/c1ccc([N+](=O)[O-])cc1 (centres undefined)	·	0.92	105	·	·	·	i
COc1ccc(S(=O)(=O)N2CCOCC2)c(Cl)c1Cl	-0.7	0.81	103	3	163	7	i
CCC(C)(C)NC(=O)C(c1ccc(F)cc1)N(Cc1ccco1)C(=O)c1snc(C(N)=O)c1N (centres undefined)	-0.6	1	104	7	90	-13	i
C/C(=N\NC(=O)C(=O)Nc1cccc(Cl)c1C)c1ccncc1	-0.9	0.91	91	-13	122	26	i
COC(=O)CNC(=O)Cn1cnc2sc(C)c(S(=O)(=O)N3CCC(C)CC3)c2c1=O	-1.1	0.95	108	0	89	-3	i
COc1cccc(NC(=O)COC(=O)c2ccc(F)cc2F)c1	1.5	1	99	6	64	29	i
Cc1occc(=O)c1OCc1c(F)cccc1Cl	·	1	98	0	·	·	i
CC1=C(C)C(c2ccccc2)NC(=S)N1 (centres undefined)	-0.6	1.1	91	0	43	0	i
Cc1cc(C)n2nc(SCCOc3ccc(F)cc3)nc2n1	·	0.9	102	-4	·	·	i
CN(C)/C=C/C(=O)C(F)(F)F	·	0.92	93	-4	116	41	i
CN1CCN(C(c2cc3cc4c(cc3[nH]c2=O)OCCO4)c2nnnn2C2CCCC2)CC1 (centres undefined)	·	0.92	118	0	47	7	i
CC(=O)Nc1cccc(N2C(=O)CC(N3CCC(C(=O)N4CCCCC4)CC3)C2=O)c1 (centres undefined)	-2.2	0.86	99	-4	161	2	i
COCCCNC(=O)Cn1cc2c(n1)CCC(C)C2 (centres undefined)	-1.2	0.9	107	-8	106	43	i
COC(=O)c1cc2c(ccn2-c2ccc(F)cc2)n1CC(C)C	8.8*	0.88	100	-18	122	14	i
CCOc1ccc2[nH]c(=O)c(C(c3nnnn3C3CCCCC3)N3CCN(CC)CC3)cc2c1 (centres undefined)	-0.5	0.89	172	-17	·	·	i
O=C(Nc1nc2c(s1)CCCC2)c1cccc(S(=O)(=O)N2CCCc3ccccc32)c1	-0.3	0.85	34	-3	68	-34	i
Cc1cc2ncc(-c3cccc(Cl)c3)cn2n1	·	0.93	103	-8	91	33	i

An excerpt from above with just HSV replic up primary fold and RGS16-Gao.
SMILES | HSV replic up primary fold | RGS16-Gao
COC(=O)c1cc2c(ccn2-c2ccc(F)cc2)n1CC(C)C | 0.88 | 100
COCCCNC(=O)Cn1cc2c(n1)CCC(C)C2 (centres undefined) | 0.9 | 107

The list goes on.
structure	GALR2 agonist	HSV replic up primary fold	RGS16-Gao	PKD1 kinase inh	INS promoter inh cell count	INS promoter inh	HSV replic up
NCCCCCc1nnc(SCc2ccc(Cl)c(Cl)c2)o1	-2.0	0.91	78	-5	241	-17	i
COc1ccc(C2Nc3ccccc3C(=O)N2NS(C)(=O)=O)cc1 (centres undefined)	·	0.99	100	-1	·	·	i
C=CCNc1nc(N2CCCCC2)c(C#N)c2c1CN(Cc1ccccc1)CC2	3.1	1	99	-1	150	29	i
COc1ccc(CCCC(=O)NC2CCCCC2C)c(C)c1 (centres undefined)	-2.4	0.93	100	2	·	·	i
CC(C)=NN/C(N)=N/C(=S)Nc1ccc(C)cc1	-0.8	0.81	55	-3	92	5	i
CCCOC(=O)CSC1=C(C#N)C(c2ccccc2OC)C(C#N)C(=O)N1 (centres undefined)	-1.8	0.82	103	-2	·	·	i
C=CCNC(=S)N/N=C(\C)c1ccc(OC)cc1	-0.2	0.93	108	-13	103	-40	i
